miR-21 reporter = raises the signal of a miR-21 reporter | 340,000 tested, under 10 active | Potency, µM (doses to about 38.3 µM), for the others: at the top dose reporter change, positive = more light | HeLa miR-21 FLuc reporter, luciferase, 48 h; active = well fitted rising curve with a large enough effect; inconclusive = small, poorly fitted or top-dose-only effect; inactive = no such curve, though single readings can be large or run the other way;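 further: % of control where 0% means no effect; miR-21 action dims this reporter so a rising signal means less miR-21 action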
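HeLa cells endogenously expressing miR-21, stably carrying CMV-driven firefly luciferase with a downstream miR-21 binding site, 2000 cells/well. Titrations up to approximately 40 uM, 48 hours; luciferase luminescence read.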
Rango complex inh = prevents formation of the Rango-importin beta complex. Q14974. Rango CFP/YFP FRET sensor + importin beta, 45 min. Potency, µM (top dose mostly 92.2 µM), for inactives: at the highest dose inhibition of complex formation. 340,000 tested, 0.031% active. AID 540263; active = rising FRET ratio curve, often small or poorly fitted; inconclusive = mostly compound fluorescence or quenching in the first reads; inactive = flat curves in all reads;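 further: potency means the concentration at half of the fitted maximal effect; 0% = DMSO wells and 100% = buffer wells lacking importin beta; nearly all actives have a fitted effect of over 15% in size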
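FRET biosensor (snurportin 1 IBB flanked by EYFP and cerulean), 50 nM, with compound 5 min, then 0.125 microM importin beta in PBS, 1 mM DTT, 0.02% Tween-20, 0.1% BSA. CFP/YFP ratio read after 45 min at room temperature; pre-read flags interference.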
GLA inh pH 4.5 = alpha-galactosidase A (human) inhibition, pH 4.5; P06280; purified enzyme, 4-MU-alpha-Gal fluorescence, pH 4.5; activity change, negative = inhibition, % at 105 µM; 230,000 tested, under 10 active; AID 1467; inconclusive = small, poorly fitted or top-dose-only inhibition, or a rising curve; inactive = flat fitted curve, though single readings scatter; no compound was filed as active;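 further: 0% = full activity with enzyme and -100% = basal without enzyme; dose as in the result columns while the protocol names 77 µM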
Target sequence (P06280 whole entry, looked up): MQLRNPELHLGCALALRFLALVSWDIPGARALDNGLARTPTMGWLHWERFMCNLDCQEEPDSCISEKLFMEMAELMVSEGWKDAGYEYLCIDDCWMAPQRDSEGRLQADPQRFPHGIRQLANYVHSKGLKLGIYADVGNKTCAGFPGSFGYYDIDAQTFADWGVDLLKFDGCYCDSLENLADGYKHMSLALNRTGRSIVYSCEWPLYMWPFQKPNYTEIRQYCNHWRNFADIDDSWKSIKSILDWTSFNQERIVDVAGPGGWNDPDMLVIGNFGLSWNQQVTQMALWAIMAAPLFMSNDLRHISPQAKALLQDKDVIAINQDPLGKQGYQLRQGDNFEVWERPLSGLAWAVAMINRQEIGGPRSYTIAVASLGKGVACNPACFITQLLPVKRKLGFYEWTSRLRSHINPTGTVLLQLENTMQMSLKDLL
Rango release inh = inhibition of RanGTP-driven Rango-importin beta dissociation | Biochemical FRET Rango-importin beta, RanGTP-induced dissociation | Potency, µM (top dose mostly 46.1 µM), for the others: at the highest dose activity change, negative = inhibition | 340,000 tested, 0.071% active | AID 540253; active means falling FRET ratio curve, often poorly fitted, with flat reads before Ran was added; inconclusive means other falling curves, or compound fluorescence or quenching; inactive means flat or rising ratio curve;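 further: potency means the concentration at half of the fitted maximal effect; % of control where 0% means no effect; nearly all actives have a fitted effect of over 45% in size; -100% = wells without RanGTP and RCC1; the record marks most hits as doubtful in a second field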
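Rango/importin beta premix (0.1/0.25 uM final), PBS + 1 mM DTT + 0.02% Tween-20 + 0.1% BSA; cpd 5 min RT; FRET pre-read; + RanGTP-RCC1 (0.6 uM Ran, 2 mM GTP, 0.2 uM RCC1); 45 min RT; FRET post-read, ex 430, em 486/530 nm.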
* marks the source's active call; other numbers are inactive results; ? = inconclusive; / = not tested or not shown; & = joins results of further samples.

Molecule	miR-21 reporter	Rango complex inh	GLA inh pH 4.5	Rango release inh
C[C@]12CC[C@H](O)CC1=C([N+](=O)[O-])CC1C2CC[C@@]2(C)C1CC[C@@H]2O (some centres not stated)	/	-1.2%	/	0.5%
Cc1cc(/C=C2\C(=O)NC(=O)N(c3cccc(F)c3)C2=O)c(C)n1-c1ccc(C(=O)O)c(Cl)c1	0.3%	-1.3%	/	-11.2%
O=C(Cc1ccccc1F)N1CCN(CC(=O)N2CCCC2)CC1	/	-0.6%	/	7.8%
CC12CCC(=O)C=C1CCC1C2CCC2(C)C(O)(C(=O)CO)CCC12O (configuration not stated)	/	-1.8%	/	4.0%
Cn1cccc1/C=C1\C(=O)NC(=O)N(Cc2ccco2)C1=O	7.3%	-3.9%	-4.9	-7.4%
COC(=O)C1=C(c2ccc3ccccc3c2)C[C@@H]2CC[C@H]1N2C(=O)NCCCOC(C)C	/	-0.3%	/	7.4%
CC(C)c1ccc(N=Nc2c(O)[nH]c(=O)[nH]c2=O)cc1	-33.0%	?	-5.2	-14.2%
C(#CCN1CCCCC1)COCc1ccccc1	-15.7%	3.8%	7.4	11.9%
Cc1ccc2c(c1)C(c1ccccc1)NCC(=O)N2 (configuration not stated)	-4.6%	-0.8%	-1.1	20.7%
COc1cc(C2SCC(=O)Nc3c2c(C)nn3-c2ccccc2)cc(OC)c1OC (configuration not stated)	-0.4%	0.7%	-1.7	-5.2%
COC(=O)C1=C(c2ccc(F)cc2OCc2ccccc2)C[C@@H]2CC[C@H]1N2C(=O)NCc1cccc(OC)c1	/	2.7%	/	3.8%
CCOC(=O)c1c(NC(NC(=O)CF)C(Cl)(Cl)Cl)sc2c1CCCC2 (configuration not stated)	-3.6%	1.0%	-5.8	31.8%
CN(C)CC/C=C1\c2ccccc2Sc2ccc(Cl)cc21	6.1%	4.4%	-13.5&4.1&-14.3	8.4%
CN1C(=O)C(=Cc2ccc(N(C)C)c([N+](=O)[O-])c2)C(=O)N(C)C1=O	-7.6%	/	2.1	/
Cc1ccc2c(c1)C1CN(C)CCC1N2C(=O)c1cn(-c2ccccc2)nc1-c1ccccc1 (configuration not stated)	8.3%	3.0%	-9.7	?
c1ccc(C(c2ccccc2)c2cccnc2)cc1	/	-0.8%	/	13.6%
CCOC(=O)C(NC(=O)CCl)(Nc1ccc(C(O)(C(=O)OCC)C(F)(F)F)cc1)C(F)(F)F (configuration not stated)	-2.4%	-2.1%	3.3	-10.2%
CN(C)C1C(=O)C(C(N)=O)=C(O)C2(O)C(=O)C3=C(O)c4c(O)cccc4C(C)(O)C3C(O)C12 (configuration not stated)	5.4%	-2.6%	/	?
CCCCn1c(O)c(C(=O)/C=C/c2ccc3c(c2)OCO3)c(=O)[nH]c1=O	1.3%	2.4%	-5.3	3.6%
CCOC(=O)C1(CCOc2ccccc2)CCN(Cc2ccc(C)s2)CC1	9.7%	0.6%	-6.2	-14.5%
Cc1ccccc1C1=NCC(=O)N(CC(=O)N2CCCCC2)c2sc(C)c(C)c21	16.2%	0.2%	4.0	1.0%
CCCCOc1ccc(CC2C(=O)N(C)C(=O)N(C)C2=O)cc1	-12.2%	-2.8%	-15.8	0.6%
CC(=O)OC1CCC2(/C=N/O)C(=CCC3C4CCC(=O)C4(C)CCC32)C1 (configuration not stated)	-0.3%	2.3%	/	0.4%
COc1ccc(CCNCc2ccc(C)s2)cc1OC	-4.0%	4.0%	0.5	27.5%
CN1CCCN(c2ccc([N+](=O)[O-])nc2)CC1	-12.3%	2.7%	/	1.8%
CCCCCn1c(=O)c(C(=O)Nc2cnccn2)c(O)c2ccccc21	-3.0%	-1.7%	2.8	-16.5%
O=C(Cc1ccccc1)OCC(=O)c1ccc(F)cc1	/	-0.1%	/	-13.6%
Cc1nn(C)c(C)c1/C=C1/CC2C3CC=C4CC(O)CCC4(C)C3CCC2(C)C1=O (configuration not stated)	-14.0%	3.8%	-2.4	9.6%

Two entries from above, as labelled records:
SMILES: CN(C)C1C(=O)C(C(N)=O)=C(O)C2(O)C(=O)C3=C(O)c4c(O)cccc4C(C)(O)C3C(O)C12 (configuration not stated)
  miR-21 reporter: 5.4%
  Rango complex inh: -2.6%
  GLA inh pH 4.5: /
  Rango release inh: ?
SMILES: CC(=O)OC1CCC2(/C=N/O)C(=CCC3C4CCC(=O)C4(C)CCC32)C1 (configuration not stated)
  miR-21 reporter: -0.3%
  Rango complex inh: 2.3%
  GLA inh pH 4.5: /
  Rango release inh: 0.4%

As entered above.
Rango complex inh with Cc1ccccc1C1=NCC(=O)N(CC(=O)N2CCCCC2)c2sc(C)c(C)c21 reads 0.2%
Rango complex inh with CCCCn1c(O)c(C(=O)/C=C/c2ccc3c(c2)OCO3)c(=O)[nH]c1=O reads 2.4%
Rango complex inh with Cn1cccc1/C=C1\C(=O)NC(=O)N(Cc2ccco2)C1=O reads -3.9%

Reprinted from the results shown for reference:
Molecule	miR-21 reporter	Rango complex inh	GLA inh pH 4.5	Rango release inh
c1ccc(C(c2ccccc2)c2cccnc2)cc1	/	-0.8%	/	13.6%
CCOC(=O)C(NC(=O)CCl)(Nc1ccc(C(O)(C(=O)OCC)C(F)(F)F)cc1)C(F)(F)F (configuration not stated)	-2.4%	-2.1%	3.3	-10.2%
CN(C)C1C(=O)C(C(N)=O)=C(O)C2(O)C(=O)C3=C(O)c4c(O)cccc4C(C)(O)C3C(O)C12 (configuration not stated)	5.4%	-2.6%	/	?
CCCCn1c(O)c(C(=O)/C=C/c2ccc3c(c2)OCO3)c(=O)[nH]c1=O	1.3%	2.4%	-5.3	3.6%
CCOC(=O)C1(CCOc2ccccc2)CCN(Cc2ccc(C)s2)CC1	9.7%	0.6%	-6.2	-14.5%
Cc1ccccc1C1=NCC(=O)N(CC(=O)N2CCCCC2)c2sc(C)c(C)c21	16.2%	0.2%	4.0	1.0%
CCCCOc1ccc(CC2C(=O)N(C)C(=O)N(C)C2=O)cc1	-12.2%	-2.8%	-15.8	0.6%

The list is partial (hit frequency here may not be typical).
